High-throughput results: PubChem, several laboratories
Proteasome disasm = blocks ATP-dependent breakdown of the yeast 26S proteasome | anti-FLAG beads, GFP-proteasome disassembly, flow cytometry | inhibition of disassembly, % (concentration not given with the values) | 24,000 compounds, 0.2% hits;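 active = above 40%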;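 note: plate controls were ATP control with full disassembly for no effect and ATP-gamma-S intact proteasomes for full effect; higher percent means more bead fluorescence retained so stronger block of disassembly; stock transfer was 100 nL into about 10 µL; wells with too few beads may also be inconclusive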
VCAM-1 rise = boosters of cytokine-driven VCAM-1 levels – cell-based, plate reader, pooled HUVEC, TNFa stimulus (AID 455); HUVEC TNFa-induced VCAM-1 immunofluorescence, plate reader; numbers were filed only for top-ranked candidate wells; augmentation, % at 5 µM; 10,000 compounds, 0.2% hits;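 active = a compound raising TNF-alpha-driven VCAM-1 surface staining, with its hit status upheld on visual or statistical review; inactive = the rest, including hits rejected on review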;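 note: 0% = TNFa with vehicle and 100% = strongest image-checked hit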
Active calls of the source: *; i = inactive; / = not tested or not shown. These rows are one share of the data. The share of hits here may be higher or lower than overall.

SMILES | Proteasome disasm | VCAM-1 rise
CCOC(=O)N1CCN(C(=O)c2cccc(NC3=NC4CS(=O)(=O)CC4S3)c2)CC1 (configuration not stated) | -0.6 | /
COc1ccc(-c2nc(CS(=O)CC(=O)NCc3ccc(Cl)cc3)c(C)o2)cc1 (configuration not stated) | -2.7 | /
Cc1cc(C)cc(NC(=O)C2CCN(S(=O)(=O)c3c(C)n[nH]c3C)CC2)c1 | -4.2 | /
COCn1c(COc2ccccc2)nc2ccccc21 | 0.7 | i
Cc1ccc(CCNC(=O)C2CCN(S(=O)(=O)c3cccc4nonc34)CC2)cc1 | -0.1 | /
O=C(NC1CC1)c1ccc(COc2ccc(F)cc2)o1 | 1.0 | /
CC(C)Sc1nnc(Cn2c(=O)sc3ccccc32)n1-c1ccccc1 | 0.5 | /
N#CC1=C(N)Oc2nc(-c3ccccc3)[nH]c2C1c1cccnc1 (configuration not stated) | 2.9 | /
CCCn1nnc(NCc2ccc(OCc3cccs3)c(OC)c2)n1 | 0.7 | i
CCC(Oc1ccccc1)C(=O)Nc1ccccc1OC (configuration not stated) | -0.2 | i
O=C(Nc1ccc2snnc2c1)N1CCN(c2ccccc2)CC1 | -0.3 | i
Cc1cccc(OCc2nc(-c3nonc3N)no2)c1C | 0.5 | /
O=C(NCCN1C(=O)C2C3C=CC(C3)C2C1=O)N1CCCCC1 (configuration not stated) | -1.9 | i
CCN(C1CCCCC1)S(=O)(=O)c1ccc(OC)c(C)c1 | 1.6 | i
O=C(Nc1ccccn1)C1CCN(S(=O)(=O)c2cccc3nonc23)CC1 | -0.5 | /
Nc1c(C(=O)NCc2ccccc2)nnn1Cc1ccc(F)cc1 | -0.8 | /
Cc1cccc(N2CCN(C(=O)c3cc4ccccc4oc3=O)CC2)c1C | 0.2 | i
COc1ccc(CCNC(=O)Cn2c(-c3nonc3N)nc3ccccc32)cc1OC | 2.0 | /
COc1cc(C2=NOC(C(=O)N3CCOCC3)C2)cc(OC)c1OC (configuration not stated) | -8.2 | /
CCOc1ccc(-c2cc(CCCC(=O)Nc3cccc(OC)c3)no2)cc1 | -1.5 | /
COc1ccc(-n2[nH]c(C)cc2=O)cc1 | -0.2 | /
Cc1ccc2c(c1)NC(=O)C(CC(=O)NCCCN1CCN(C3CCCCC3)CC1)O2 (configuration not stated) | -1.6 | /
CC1CCCCN1CCNC(=O)c1cc2c(=O)n(C)c3ccccc3c2n1C (configuration not stated) | 0.5 | /
O=C(C1CC1)N1CCc2cc(S(=O)(=O)NCCC3=CCCCC3)ccc21 | 1.4 | /
COCCn1c(SCC(=O)Nc2nnc(C)s2)nnc1-c1ccncc1 | 0.8 | i
CC1Cc2ccccc2N1C(=O)COC(=O)Cn1nnc(-c2ccccc2)n1 (configuration not stated) | 1.6 | i
CN1CCc2c(sc3c2c(=O)n(-c2cccc(Cl)c2)c2nncn32)C1 | 30 | i
c1ccc(OCCCn2nnc(-c3cccnc3)n2)cc1 | 6.1 | i
O=C1OC(c2ccccc2)=C/C1=C\N1CCOCC1 | 2.2 | /
CCc1ccc2c(c1)C(NC(C)=O)C(=O)N2CC (configuration not stated) | -0.2 | /
O=C(NCC1CCCO1)C1c2ccccc2C(=O)N1C1CCCCCCC1 (configuration not stated) | 0.4 | /
Cc1cc(NC(=O)CSc2nc(CCC3CCCC3)nc3ccccc23)no1 | 0.3 | i
COc1cccc(N2CCN(C(=O)CN(C)S(=O)(=O)c3ccc4c(c3)CCC(=O)N4)CC2)c1 | -1.2 | /
CC(C)CCN(C)C1CCN(S(=O)(=O)c2ccc(F)cc2)CC1 | -1.0 | i
Cn1c2ccccc2c2cnn(CC(=O)N3CCN(c4ncccn4)CC3)c(=O)c21 | 1.0 | /
COc1ccccc1CNC(=O)C1CCCN(S(=O)(=O)c2cnc[nH]2)C1 (configuration not stated) | 9.3 | i
O=C(NCCCN1CCCC1=O)c1ccc(CNS(=O)(=O)c2ccc(F)cc2)cc1 | -0.7 | /
CCOC(=O)N1CCC(c2cc(=O)n3[nH]c(-c4ccccc4)cc3n2)CC1 | 0.6 | /
Cc1ccc2ncnc(NCCCN3CCOCC3)c2c1 | -2.1 | i
CCN1CCN(C(=O)C2c3cc(OC)c(OC)cc3C(=O)N3CCc4ccccc4C23)CC1 (configuration not stated) | 0.8 | /
CCCN1CCN(CCCNC(=O)c2cc3c(=O)n(C)c4ccccc4c3n2C)CC1 | 0.1 | /
COc1ccc(CC(=O)N2CCN=C2SC)cc1 | 1.2 | /
CCOc1ccc(OCC)c(NC(=O)C2CCN(S(=O)(=O)c3cccc4nonc34)CC2)c1 | -0.6 | /
COc1ccccc1NC(=O)C1=C(C)Nc2nnnn2C1c1ccccc1OC (configuration not stated) | -0.9 | i
O=C(Nc1cc(C(F)(F)F)ccc1Cl)C1CCN(c2nnc(-n3cccc3)s2)CC1 | 5.4 | i
COc1ccc(Cl)cc1C(=O)N(Cc1nc(-c2cccc(C)c2)no1)C(C)C | 0.8 | /
CCOc1ccccc1C1C(C(=O)Nc2ccc(OC)cc2)=C(C)Nc2nc(CCCO)nn21 (configuration not stated) | 0.2 | i
COc1ccc(C2C(C(=O)c3sc(C)nc3C)=C(O)C(=O)N2CCN(C)C)cc1OC (configuration not stated) | 0.7 | i
CC1CC(=O)Nc2ccccc2S1(=O)=O (configuration not stated) | -1.4 | /
COc1ccc(NC(=O)c2nnn(Cc3cccc(F)c3)c2N)c(OC)c1 | -0.6 | /
CC1CCN(C(=O)Cn2c(=O)n(Cc3ccc4c(c3)OCO4)c(=O)c3ccccc32)CC1 | -2.2 | /
CC(C)(C)C(=O)CNS(=O)(=O)c1ccc(S(=O)(=O)NC2CCCC2)cc1 | 0.2 | i
COc1cccc(C2CC(c3ccccc3)n3ncnc3N2)c1 (configuration not stated) | -0.7 | i
CC1CCN(CC(C)OC(=O)c2ccc3c(c2)OCCO3)CC1 (configuration not stated) | -1.0 | /
CCCSC1=C(C#N)C(c2ccccc2OCC)CC(=O)N1 (configuration not stated) | 0.4 | i
O=C(O)C1CC1c1ccc(Br)cc1 (configuration not stated) | 1.1 | /
Cc1noc(/C=C/N(C)C)c1S(=O)(=O)N1CCCC(C(=O)Nc2ccc3c(c2)OCO3)C1 (configuration not stated) | -4.8 | /
O=C1C(c2ccncc2)N(CCC2=CCCCC2)C(=O)CN1C1CCCCC1 (configuration not stated) | 2.5 | /
Cc1cc(NC(=O)C2CC(c3ccc(F)cc3)=NO2)no1 (configuration not stated) | 0.1 | /
CC1CC(C)CN(CCCNC(=O)C2CCCN(c3nnc(N4CCCC4=O)s3)C2)C1 (configuration not stated) | -1.7 | /

Next part
SMILES | Proteasome disasm | VCAM-1 rise
c1ccc(-c2noc(CSc3nc4ccccc4o3)n2)cc1 | 1.2 | /
Cn1c(C(=O)OCC(=O)NCC2CCCO2)cc2sccc21 (configuration not stated) | -2.1 | i
CN1CCN(c2nc3c(c(=O)n(C)c(=O)n3C)n2Cc2cccc3ccccc23)CC1 | -1.5 | i
CC(C)(C)C1=C[C@@H](CO)C[C@@H](CO)C1 | -0.1 | i
CCOC(=O)c1ccccc1NC(=O)CCNC(=O)Cn1cnc2ccccc2c1=O | -0.5 | /
O=C(c1ccco1)N1CCN(S(=O)(=O)c2ccc3c(c2)CCN3C(=O)C2CCC2)CC1 | -0.1 | i
COCCN1C(=O)c2ccccc2C(C(=O)NCCCN2CCCC2)C1c1c[nH]c2ccccc12 (configuration not stated) | 0.1 | /
CC1CCN(C(=O)Cn2c(=O)n(CCc3ccccc3)c(=O)c3ccccc32)CC1 | 0.0 | /
COC(=O)c1nnn(CC(=O)Nc2cc(Cl)ccc2C)c1C(=O)OC | -2.1 | /
COc1ccccc1CNS(=O)(=O)c1ccc(NC(C)=O)cc1 | -2.7 | i
COc1cc(C2C(C(N)=O)=C(C)Nc3nc(CCCO)nn32)cc(OC)c1OC (configuration not stated) | -0.1 | /
O=C(c1ccc(Cl)cc1)N1CCCOC1 | -1.2 | i
COc1ccccc1NC(=O)N(C1CCCC1)C1CCN(C(C)=O)CC1 | 0.4 | i
Cc1oc(-c2ccccc2F)nc1CN1CCC(C(=O)NC2CC2)CC1 | 3.1 | /
Cc1cccc(-c2nc(CN3CCCC(C(=O)NC4CCCCCC4)C3)c(C)o2)c1 (configuration not stated) | 8.1 | /

By substructure: the entries above containing a tert-butyl group
SMILES | Proteasome disasm | VCAM-1 rise
CC(C)(C)C(=O)CNS(=O)(=O)c1ccc(S(=O)(=O)NC2CCCC2)cc1 | 0.2 | i
CC(C)(C)C1=C[C@@H](CO)C[C@@H](CO)C1 | -0.1 | i

Arranged by molar mass (rising): three of the compounds above
SMILES | Proteasome disasm | VCAM-1 rise
COc1ccccc1CNS(=O)(=O)c1ccc(NC(C)=O)cc1 | -2.7 | i
COc1cc(C2C(C(N)=O)=C(C)Nc3nc(CCCO)nn32)cc(OC)c1OC (configuration not stated) | -0.1 | /
COCCN1C(=O)c2ccccc2C(C(=O)NCCCN2CCCC2)C1c1c[nH]c2ccccc12 (configuration not stated) | 0.1 | /

Next part:
SMILES | Proteasome disasm | VCAM-1 rise
Nc1nnnn1/N=C/c1ccccc1OCc1ccccc1 | 1.8 | i
CCCCC(=NCCO)C1=C(O)C(C(=O)OC)C(C)(C)CC1=O (configuration not stated) | -1.3 | i
CC1(C)CC(=O)C2=C(C1)NC(=O)CC2c1ccccc1F (configuration not stated) | 2.6 | /
Cc1ccc(CCN2CC(C(=O)NCCCN(C)Cc3ccccc3)CC2=O)cc1 (configuration not stated) | 0.7 | /
COc1ccc(CCn2c(=N)c(C(=O)NCc3ccco3)cc3c(=O)n4ccccc4nc32)cc1 | 5.9 | i
Cc1cc(C)cc(N(CC(=O)NCC2CCCO2)S(=O)(=O)c2c(C)noc2C)c1 (configuration not stated) | -0.2 | /
Cc1nnc2ccc(N3CCN(c4cccc(C(F)(F)F)c4)CC3)nn12 | 0.3 | i
CCCN(CCC)C(=O)C1CCN(c2cc(C)nc3c(-c4ccc(OC)c(OC)c4)c(C)nn23)CC1 | 0.1 | i
NS(=O)(=O)c1cc2c(cc1Cl)NC(C1C[C@H]3C=C[C@@H]1C3)NS2(=O)=O (some centres not stated) | -1.1 | i
CCOC(=O)c1sc(C(=O)OCC)c(OCCO)c1OCCO | -0.5 | /
CC(C)(C)SCCNC(=O)COc1ccc(Cl)cc1 | 0.9 | i
O=C(CN1CCN(S(=O)(=O)c2ccc(Br)cc2)CC1)Nc1ccc2c(c1)OCO2 | -1.2 | /
CCc1ccccc1NS(=O)(=O)c1ccc2[nH]cc(C(=O)NCc3ccco3)c(=O)c2c1 | 0.7 | /
O=C(CCC1CCCCC1)Nc1c2c(nn1-c1ccc(F)cc1)CS(=O)C2 (configuration not stated) | 0.8 | /
O=C(O)c1ccc2c(c1)N(Cc1ccccc1)C(=O)c1ccccc1S2=O (configuration not stated) | -0.2 | /
CCC(=O)/C=C1\Sc2ccc(OC)cc2N1CCO | 0.1 | i
Cc1noc(/C=C/N(C)C)c1S(=O)(=O)N1CCCC(C(=O)NCc2ccc(Cl)cc2)C1 (configuration not stated) | 4.7 | /
COc1ccc(CNC(=O)C(NS(=O)(=O)c2ccc3c(c2)CCCN3C(C)=O)C(C)C)cc1 (configuration not stated) | 0.7 | /
COc1ccccc1C(=O)Nc1ccc(S(=O)(=O)N2CCOCC2)cc1 | 2.0 | i
C=CCn1c(N)nc2ccccc21 | -4.3 | /
CC(=O)NC(Cc1cc(C)ccc1C)C(=O)N1CCN(C(=O)Nc2ccc(C(C)=O)cc2)CC1 (configuration not stated) | -0.4 | i
CC1(C)CC(=O)c2c(-c3cccnc3)n[nH]c2C1 | -1.4 | /
COCCCNC(=O)CCc1nc2cccnc2n1Cc1ccccc1 | -0.3 | /
COCCNC(=O)CSc1nc2nc(C)cc(C)n2n1 | 1.4 | /
CN(CCNC(=O)c1cccc(N2CCCC2=O)c1)Cc1ccccc1 | 0.4 | /
Cc1cc(NC(=O)C2CCCN(S(=O)(=O)c3cnc[nH]3)C2)ccc1Br (configuration not stated) | 0.0 | /
Cn1c(SCc2c(F)cccc2Cl)nnc1-c1cccs1 | -2.9 | i
COc1ccccc1N1CCN(C(=O)c2cccc(N3C(=O)NC4CC3(C)Oc3ccccc34)c2)CC1 (configuration not stated) | -0.8 | /
Cc1ccc(-c2cc(C(F)(F)F)n3nc(C(=O)N4CCCC4)cc3n2)cc1 | 0.3 | i
COc1cccc(OCC(O)CN(CCO)Cc2ccccc2)c1 (configuration not stated) | -2.4 | /

Reformatted tab-delimited: 5 of the compounds above.
SMILES	Proteasome disasm	VCAM-1 rise
CC(=O)NC(Cc1cc(C)ccc1C)C(=O)N1CCN(C(=O)Nc2ccc(C(C)=O)cc2)CC1 (configuration not stated)	-0.4	i
Cc1cc(NC(=O)C2CCCN(S(=O)(=O)c3cnc[nH]3)C2)ccc1Br (configuration not stated)	0.0	/
COc1ccc(CNC(=O)C(NS(=O)(=O)c2ccc3c(c2)CCCN3C(C)=O)C(C)C)cc1 (configuration not stated)	0.7	/
COc1ccccc1N1CCN(C(=O)c2cccc(N3C(=O)NC4CC3(C)Oc3ccccc34)c2)CC1 (configuration not stated)	-0.8	/
COc1cccc(OCC(O)CN(CCO)Cc2ccccc2)c1 (configuration not stated)	-2.4	/

Additional results follow.
SMILES | Proteasome disasm | VCAM-1 rise
CC(=O)Nc1ccc(Cc2ccncc2)cc1 | 1.7 | i
c1ccc(-c2ccccc2OCCn2cncn2)cc1 | 1.0 | i
O=C1C2CCCN2C(c2ccccc2F)N1c1cccc(Cl)c1 (configuration not stated) | 2.2 | /
COc1ccc(OC)c(C2C(C(=O)Nc3cccnc3)=C(C)NC3=C2C(=O)CCC3)c1 (configuration not stated) | 1.9 | i
O=C(NCCN1CCOCC1)c1cc(-c2ccco2)on1 | -0.5 | /
CC(=O)c1cc(-c2ccccc2)n(CCC(=O)NCc2cccs2)c1C | 0.9 | /
COc1ccc(-c2cc(N)n(CCC#N)n2)c(OC)c1 | -0.8 | /
O=C(Cn1ncc2c(=O)oc3ccccc3c21)NCC1CCCO1 (configuration not stated) | -0.8 | i
